Arbovirus anti = blocks arbovirus infection | arbovirus infection cell-based antiviral screen | inhibition, % at 10 µM | actives 0.37% (n = 200,000) | AID 1251;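 active = inhibition from about 30%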;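 also: bluetongue infection of BSR cells; cell survival read as ATP light after 72 h; 0% = infected wells without compound and 100% = uninfected wells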
Mtb bLac sens = beta-lactam sensitization of Mtb H37Rv. M. tuberculosis H37Rv growth with meropenem, percent inhibition; hits of this screen are not shown here. inhibition, % at 25 µM. actives 0.27% (n = 330,000);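 active = about 74% or more and at least 40 points above the plate without the antibiotic, then above 30% in a dose series; inconclusive = first-round hits that could not be retested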;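 also: growth measured after seven days incubation then overnight dye step; 0% = bacteria only wells and 100% = bacteria with antibiotic; twin plates without the antibiotic show which effects depend on it; some results filed as inactive read as strong as hits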
Mtb H37Rv = M. tuberculosis H37Rv growth inhibitors, H37Rv strain (AID 1626) | M. tuberculosis H37Rv growth inhibition; higher % means a stronger effect | one-dose inhibition, % at 10 µM; IC50 in µM for titrated hits | actives 0.95% (n = 220,000);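 active = confirmed in a dose series; inconclusive = inhibition above 80% but not taken into the dose series; inactive = below 80% or under 30% at every dose of the series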;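 also: bacteria incubated seven days before Alamar blue readout; 0% = bacteria only wells and 100% = bacteria with antibiotic wells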
YopH inh = blocks Yersinia enterocolitica YopH tyrosine phosphatase; fluorescence Ex485/Em525; inhibition, %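 (about 10 µM by stock and volumes)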; actives 0.16% (n = 140,000); AID 898;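 active = inhibition of 50% or more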;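 also: controls were vehicle for no effect and minimum signal wells for full effect; inactives centre near -20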
RecA splice inh = inhibitors of M. tuberculosis RecA intein splicing; inhibition, %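 (about 9 µM by stock and volumes)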; cell-free RecA intein splicing, fluorescence; P9WHJ3; actives 0.75% (n = 290,000); in the data active = inhibition above about 30%; inconclusive = no clear call, values can overlap the other calls;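 also: 0% = vehicle wells and 100% = reference inhibitor control wells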
Target sequence (P9WHJ3 whole entry, looked up, canonical isoform): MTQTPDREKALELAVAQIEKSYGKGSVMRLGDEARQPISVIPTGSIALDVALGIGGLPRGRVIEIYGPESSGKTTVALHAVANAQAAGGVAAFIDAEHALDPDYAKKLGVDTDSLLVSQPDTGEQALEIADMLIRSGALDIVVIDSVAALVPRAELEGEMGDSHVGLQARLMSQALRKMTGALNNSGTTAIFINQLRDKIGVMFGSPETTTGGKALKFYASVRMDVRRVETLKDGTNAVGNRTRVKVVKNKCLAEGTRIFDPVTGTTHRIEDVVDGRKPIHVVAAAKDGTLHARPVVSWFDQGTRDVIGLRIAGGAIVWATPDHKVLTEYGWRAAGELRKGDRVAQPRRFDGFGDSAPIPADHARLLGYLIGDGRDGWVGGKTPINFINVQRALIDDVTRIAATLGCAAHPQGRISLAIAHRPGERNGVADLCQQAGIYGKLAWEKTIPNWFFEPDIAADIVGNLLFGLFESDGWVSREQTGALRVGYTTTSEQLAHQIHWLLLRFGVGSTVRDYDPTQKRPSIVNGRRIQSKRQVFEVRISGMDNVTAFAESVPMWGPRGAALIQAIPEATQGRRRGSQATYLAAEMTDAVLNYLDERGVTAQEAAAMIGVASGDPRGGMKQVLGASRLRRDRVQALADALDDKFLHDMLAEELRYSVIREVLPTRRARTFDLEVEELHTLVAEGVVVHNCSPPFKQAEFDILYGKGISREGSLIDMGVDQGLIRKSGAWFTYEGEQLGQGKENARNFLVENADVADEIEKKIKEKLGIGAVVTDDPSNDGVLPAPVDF
Arbovirus anti repeat = second read-out of Arbovirus anti, no call of its own (marks repeat the call); inhibition, %; measured here: 10K subset replicate screen; many hits read low in the repeat;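 first of two repeat runs on a subset; 0% = infected and 100% = uninfected wells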
Active calls of the source: *; ? = inconclusive; . = not tested or not shown.

A first look (18 entries):
SMILES | Arbovirus anti | Mtb bLac sens | Mtb H37Rv | YopH inh | RecA splice inh | others
N#CCC(=O)Nc1ccc(C(=O)OCC(=O)Nc2cccc(C(F)(F)F)c2)cc1 | -3 | -1 | -1% | . | 1.4
N=c1n(CCN2CCCCC2)c2ccccc2n1CC(O)c1ccco1 (centres undefined) | . | -13 | -8% | . | -0.7
COc1ccccc1NC(=O)CSc1nc2[nH]ncc2c(=O)[nH]1 | . | -7 | . | . | -1.7
O=C(CN1CCOCC1)Nc1c(-c2ccccc2)c2cc(Br)ccc2[nH]c1=O | -13 | -11 | 0% | -17 | 1.0
COc1cccc(N=c2oc3c(C)ncc(CO)c3cc2C(=O)Nc2ccccc2OC)c1 | -2 | . | . | -3 | -1.2
O=C(CN1C(=O)S/C(=C/C=C/c2ccccc2)C1=O)Nc1ccc(C(=O)O)cc1 | 8 | 1 | -2% | . | 21
CC1Oc2ccccc2N(CC(=O)N2CCc3ccccc32)C1=O (centres undefined) | 0 | -1 | 3% | 2 | 1.7
CCCCN(C)C(=O)c1cc2cc3ccc(OC)cc3nc2o1 | . | 10 | . | . | -1.1
O=C(Nc1nccs1)c1ccc2ccccc2n1 | . | 87 | . | . | 3.0
COc1cc(C2N(C)C(=O)c3ccccc3N2C)ccc1O (centres undefined) | . | -4 | . | . | -3.5
O=C(O)c1cc(C(=O)C2CCCCC2)c[nH]1 | 8 | -6 | -2% | . | -3.4
COc1ccc(C(=O)n2nc(C)cc2C)cc1Br | 5 | 12 | 1% | -15 | 7.1 | Arbovirus anti repeat=1
O=C(N/N=C/c1c(O)n(CCc2ccc(F)cc2)c(=O)[nH]c1=O)c1ccncc1 | 15 | 100 | ? | . | -0.2
O=C(COC(=O)CCc1ccccc1)Nc1cc([N+](=O)[O-])ccc1F | . | -2 | . | . | 1.3
O=C(CNC(=O)c1ccc2c(c1)OCO2)N/N=C/c1cccc([N+](=O)[O-])c1 | -11 | 2 | -2% | . | 4.9
Cc1ccc(S(=O)(=O)NNC(=O)CCCCC(=O)NNS(=O)(=O)c2ccc(C)cc2)cc1 | 15 | -4 | 9% | . | 1.8
COc1ccc(C(=O)N/C(=C\c2cn(S(=O)(=O)N(C)C)c3ccccc23)C(=O)NCCN2CCOCC2)cc1OC | . | 1 | . | . | 1.2
COC(=O)C1CCN(C(=O)c2ccc3oc(Cc4ccc(Cl)cc4)nc3c2)CC1 | . | -4 | . | . | 0.9

The whole of this part, previewed entries included:
SMILES | Arbovirus anti | Mtb bLac sens | Mtb H37Rv | YopH inh | RecA splice inh | others
N#CCC(=O)Nc1ccc(C(=O)OCC(=O)Nc2cccc(C(F)(F)F)c2)cc1 | -3 | -1 | -1% | . | 1.4
N=c1n(CCN2CCCCC2)c2ccccc2n1CC(O)c1ccco1 (centres undefined) | . | -13 | -8% | . | -0.7
COc1ccccc1NC(=O)CSc1nc2[nH]ncc2c(=O)[nH]1 | . | -7 | . | . | -1.7
O=C(CN1CCOCC1)Nc1c(-c2ccccc2)c2cc(Br)ccc2[nH]c1=O | -13 | -11 | 0% | -17 | 1.0
COc1cccc(N=c2oc3c(C)ncc(CO)c3cc2C(=O)Nc2ccccc2OC)c1 | -2 | . | . | -3 | -1.2
O=C(CN1C(=O)S/C(=C/C=C/c2ccccc2)C1=O)Nc1ccc(C(=O)O)cc1 | 8 | 1 | -2% | . | 21
CC1Oc2ccccc2N(CC(=O)N2CCc3ccccc32)C1=O (centres undefined) | 0 | -1 | 3% | 2 | 1.7
CCCCN(C)C(=O)c1cc2cc3ccc(OC)cc3nc2o1 | . | 10 | . | . | -1.1
O=C(Nc1nccs1)c1ccc2ccccc2n1 | . | 87 | . | . | 3.0
COc1cc(C2N(C)C(=O)c3ccccc3N2C)ccc1O (centres undefined) | . | -4 | . | . | -3.5
O=C(O)c1cc(C(=O)C2CCCCC2)c[nH]1 | 8 | -6 | -2% | . | -3.4
COc1ccc(C(=O)n2nc(C)cc2C)cc1Br | 5 | 12 | 1% | -15 | 7.1 | Arbovirus anti repeat=1
O=C(N/N=C/c1c(O)n(CCc2ccc(F)cc2)c(=O)[nH]c1=O)c1ccncc1 | 15 | 100 | ? | . | -0.2
O=C(COC(=O)CCc1ccccc1)Nc1cc([N+](=O)[O-])ccc1F | . | -2 | . | . | 1.3
O=C(CNC(=O)c1ccc2c(c1)OCO2)N/N=C/c1cccc([N+](=O)[O-])c1 | -11 | 2 | -2% | . | 4.9
Cc1ccc(S(=O)(=O)NNC(=O)CCCCC(=O)NNS(=O)(=O)c2ccc(C)cc2)cc1 | 15 | -4 | 9% | . | 1.8
COc1ccc(C(=O)N/C(=C\c2cn(S(=O)(=O)N(C)C)c3ccccc23)C(=O)NCCN2CCOCC2)cc1OC | . | 1 | . | . | 1.2
COC(=O)C1CCN(C(=O)c2ccc3oc(Cc4ccc(Cl)cc4)nc3c2)CC1 | . | -4 | . | . | 0.9
CCCC1=Nc2cc(C(=O)NCCCN3CCOCC3)ccc2Sc2ccccc21 | . | 3 | . | . | 1.1
CCOC(=O)CNC(=O)C12CC3CC(C1)CC(c1ccc(C)cc1)(C3)C2 | 21 | -2 | 0% | . | 6.2
O=C(CSc1nnc(-c2ccccc2F)n1C1CC1)Nc1cccnc1Cl | 3 | 2 | -7% | -26 | 0.5
CCNC(=O)N1C(=O)C2(OCCO2)c2cc(Br)ccc21 | 1 | 4 | -4% | -34 | 3.0
CCOC(=O)C(NC(C)=O)C(=O)Nc1c(C)cccc1C (centres undefined) | 8 | -7 | -4% | . | -0.7
N#CCSc1nnc(-c2ccc(F)cc2)n1N | 2 | 2 | 2% | . | -0.4
O=C(/C=C/c1ccccc1)Nc1ccc(Cl)cn1 | -18 | . | -2% | . | -0.1
N=c1ccn(Cc2ccc(Cl)c(Cl)c2)cc1 | -23 | 3 | 2% | -32 | -0.2
Cc1cccc(N2CCN(S(=O)(=O)c3c(C(=O)N4CCCCC4)c(C)n(C)c3C)CC2)c1C | . | -2 | . | . | 7.0
Cc1ccccc1NC(=O)c1ccc(NS(=O)(=O)c2cc(C(C)(C)C)cc(C)c2C)cc1 | 11 | 1 | 6% | -24 | 1.6
CCOc1ccc(OCCNCc2ccc(OC(C)C(=O)N(C)C)c(OCC)c2)cc1 (centres undefined) | . | -9 | . | . | 0.0
CC1(OC(=O)CCc2ccccc2)C(=O)C=C2C=C(c3ccc(C#N)cc3)N(CCc3ccccn3)C=C2C1=O (centres undefined) | . | -3 | -1% | . | -6.2
CC(C)CCNC(=O)C1(c2cccs2)CCOCC1 | 11 | -16 | 2% | . | -2.2
C=CCn1c(=NC(=O)C2CCCCC2)sc2cc(NC(C)=O)ccc21 | -5 | 6 | 11% | -33 | 0.5
O=C(Cc1ccccc1)N/N=C/c1cccnc1 | . | -1 | . | . | 0.8
O=C(NNC(=S)NC(=O)c1ccco1)c1ccc(NC(=O)c2ccccc2)cc1 | -15 | 28 | ? | . | 4.7
Cc1cc(N2CCOCC2)ccc1/C=C1\NC(=O)N(CC(=O)Nc2ccc(F)cc2)C1=O | 0 | 8 | -1% | . | -8.6
COc1cc(/C=C(\C#N)C(=O)NCC2CCCO2)ccc1OC(C)C (centres undefined) | 7 | 1 | -1% | -27 | 0.7
Cc1cc(Nc2ccccc2)nn1C(=O)c1ccccc1 | -5 | 11 | 0% | -46 | 4.5
Cc1onc(-c2ccccc2)c1C(=O)N/N=C/c1ccco1 | . | 3 | 9% | . | .
CC(C)C(=O)C1=Cc2cc([N+](=O)[O-])ccc2OC1N1CCOCC1 (centres undefined) | . | -3 | . | . | 0.7
COc1ccc(C(CC(=O)c2ccc(O)cc2)S(=O)(=O)c2ccc(C)cc2)cc1 (centres undefined) | -4 | 15 | 5% | -21 | .
CCn1c(=O)cc(N2CCN(C(=O)c3ccco3)CC2)[nH]c1=O | . | -7 | 12% | . | -3.6
Cc1c(Cl)cccc1NC(=O)C1CCCN(S(C)(=O)=O)C1 (centres undefined) | . | -1 | . | . | 0.5
COc1ccc(Cc2n[nH]c(=S)n(N)c2=O)cc1 | -1 | 1 | -4% | . | 1.3
Cc1csc(SCC(=O)NC2CCC(C)CC2)n1 (centres undefined) | . | -9 | . | . | 0.3
COc1ccccc1CCC(=O)OC(C)C(=O)Nc1c(C)n(C)n(-c2ccccc2)c1=O (centres undefined) | . | -2 | . | . | 5.2
COc1ccc(NP(=O)(Oc2cccc(C)c2)Oc2cccc(C)c2)cc1OC | . | 5 | -4% | . | 12
O=C1C2CCCN2C(=O)N1CCCN1CCN(c2cccc(Cl)c2)CC1 (centres undefined) | 1 | 4 | -11% | -16 | -7.2
CCCCOc1ccc(Cc2c(Cl)nc(SC)nc2N2CCOCC2)cc1 | 11 | 3 | 4% | -5 | 8.1
Cc1cccc(Oc2nc3ccccn3c(=O)c2/C=C(\C#N)C(=O)NC2CCS(=O)(=O)C2)c1 (centres undefined) | 2 | -2 | 7% | -32 | -33
COC(=O)C1CCN(C(=O)c2ccc(SC)cc2OC)CC1 | 3 | -5 | 5% | -2 | .
COc1ccc(C(=O)NN)cc1 | . | -10 | -17% | . | 0.0
O=C(COCC(=O)N1CCOCC1)N1CCOCC1 | 11 | 0 | -1% | . | 3.1
COc1cc(/C=C2/C(=O)CNC2=O)ccc1O | 0 | 0 | -5% | . | 2.8
CCCCN(C(=O)c1ccc([N+](=O)[O-])s1)c1c(N)n(CCCC)c(=O)[nH]c1=O | . | 0 | . | . | -7.1
CN(Cc1ccccc1)C(=O)COC(=O)c1ccc(Cl)c(N)c1 | -3 | -2 | 10% | 5 | 0.0
Cc1ccc(S(=O)(=O)N2CC(=O)NC(=O)C2)cc1 | . | 2 | . | . | -0.4
CN1CCCC(C(=O)c2ccc(Cl)cc2)C1 (centres undefined) | 1 | -4 | 1% | . | .
C1CCC(CNc2c3c(nc4nnnn24)CCCC3)CC1 | 1 | -4 | 2% | -27 | 1.4
S=c1[nH]cc(-c2ccccc2)n1-c1ccccc1 | 10 | -7 | -4% | -24 | 3.5
COc1ccc(C(C(=O)NC2CCCC2)N(C(=O)c2ccoc2C)c2ccc(C)cc2)cc1 (centres undefined) | -23 | 8 | 2% | -47 | 5.1

(continued)
SMILES | Arbovirus anti | Mtb bLac sens | Mtb H37Rv | YopH inh | RecA splice inh | others
CC(C)Cn1c(N)c(-c2nc(C(C)C)c(C(=O)c3ccccc3F)s2)c(=O)n(C)c1=O | -9 | -3 | 4% | . | -1.6
Cc1csc(-c2cnn(-c3ccccc3)c2NC(=O)c2cccc(F)c2)n1 | 2 | 22 | -10% | -19 | -1.9
O=C(O)c1ccc(COCC(F)(F)C(F)F)o1 | -7 | -14 | -1% | -33 | 2.7
COc1ccccc1NC(=O)CN1CCC(n2nnc3cc(F)ccc32)CC1 | 4 | -9 | -5% | -39 | -2.9
Cc1cccc(N2CCN(C(=S)c3ccc(-c4ccccc4[N+](=O)[O-])o3)CC2)c1 | -20 | -1 | -9% | -7 | 7.2
COc1ccccc1C/C(N)=N/OC(=O)COc1ccc(C)cc1 | . | 5 | . | . | 5.9
Cn1nccc1C(=O)OCC(=O)Nc1ccc(S(N)(=O)=O)cc1 | . | 4 | . | . | -0.3
O=C(O)CC(NC(=O)C1CCCCC1)c1ccc(OC2CCCC2)cc1 (centres undefined) | 9 | -2 | 0% | . | 7.5
CCN1CCN(C(=S)Nc2ccc3nc4n(c(=O)c3c2)CCCCC4)CC1 | 10 | 0 | -2% | . | -0.1
CCOC(=O)c1csc(NC(=O)CC2CCCC2)n1 | 30* | 5 | 1% | . | -0.3
CC(C)(C)SCCNC(=O)c1ccccc1 | 7 | -5 | -5% | -19 | 3.3
CCCCCCCNc1cccc(C)c1 | . | -5 | -2% | . | -1.1
CC1(C)N([O-])c2cc([N+](=O)[O-])ccc2[N+]1=O | . | 21 | 0% | . | .
NC(=O)c1cc(S(=O)(=O)N2CCCCC2)cs1 | . | 1 | . | . | 1.0
Cc1cccnc1NC(=O)c1ccccc1NC(=O)C(C)(C)C | 6 | -8 | -2% | -30 | -2.8
N/C(=N\OC(=O)c1cc(-c2ccccc2)nc2ccccc12)c1ccc(Cl)cc1 | -3 | 5 | -2% | -25 | -1.4
Cc1cc(C)cc(NC(N)=S)c1 | -7 | 2 | 4% | -24 | 0.6
CC(C)N(Cc1cnn(C)c1)Cc1nc(-c2ccc(Cl)cc2)no1 | 0 | -11 | -5% | . | 0.2

Retrieved by structure from above:
SMILES | Arbovirus anti | Mtb bLac sens | Mtb H37Rv | YopH inh | RecA splice inh | others
CC1(C)N([O-])c2cc([N+](=O)[O-])ccc2[N+]1=O | . | 21 | 0% | . | .
N/C(=N\OC(=O)c1cc(-c2ccccc2)nc2ccccc12)c1ccc(Cl)cc1 | -3 | 5 | -2% | -25 | -1.4

High-throughput results deposited in PubChem BioAssay by several laboratories.

These rows are one share of the data (hit frequency here may not be typical).
